# Assay outcomes: PubChem, SRMLSC
# HSV augment: HSV replication enhancement. actives 0.005% (n = 220,000). HSV replication augmentation in cells, fold increase. maximum fold increase;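 active = peak rise of 1.5-fold or more in the series; tested in PC3 cells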;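 also: first round at 10 µM; read as green reporter fluorescence; hits show the peak of a series up to 25 µM; 1 = signal of infected wells without compound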
# HSV augment primary fold: recorded beside HSV augment, whose call it bears; fold increase; compound at 10 µM; measured here: primary screen fold increase 10 uM; tested in PC3 cells;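 GFP signal in the first replicate; 1 = infected wells without compound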
# * hit, by the source's call; i = inactive.
# A first look, 3 compounds:
SMILES | HSV augment | HSV augment primary fold
COc1ccc(-c2csc(NC(C)c3nc4cc(Cl)c(N5CCCCC5)cc4n3CCOCCO)n2)cc1 (centres undefined) | i | 0.78
COc1ccc(C2=CC(=O)CC(c3ccc(F)cc3)C2)cc1 (centres undefined) | i | 0.95
C[C@H]1CCC[C@@]2(O[C@@H](CCO)C[C@H](O)[C@H]2O)O1 | i | 0.87

# All compounds of this part, from the first entry:
SMILES | HSV augment | HSV augment primary fold
COc1ccc(-c2csc(NC(C)c3nc4cc(Cl)c(N5CCCCC5)cc4n3CCOCCO)n2)cc1 (centres undefined) | i | 0.78
COc1ccc(C2=CC(=O)CC(c3ccc(F)cc3)C2)cc1 (centres undefined) | i | 0.95
C[C@H]1CCC[C@@]2(O[C@@H](CCO)C[C@H](O)[C@H]2O)O1 | i | 0.87
CC(Oc1ccccc1)C(=O)N1CCC2(CC1)Oc1ccc(F)cc1C(=O)C21CC(c2ccccc2)=NO1 (centres undefined) | i | 0.93
COc1ccnc(CS(=O)c2nc3cc(OC(F)F)ccc3[nH]2)c1OC (centres undefined) | i | 0.78
COc1cccc(-c2nn3c(-c4ccco4)nnc3s2)c1 | i | 0.75
COC(=O)CN1C(=O)[C@@H]2[C@H](C1=O)[C@@H]1CC(C(=O)OC)=C[C@@H](C(=O)OC)[C@@H]3C1=C(C(=O)[C@@]3(C)NC(=O)c1ccccc1)[C@@H]2C | i | 0.93
CCC(=O)OC1(C)C(=O)C=C2C=C(CCCC(=O)OC)OC=C2C1=O (centres undefined) | i | 0.96
Nc1c(Cl)cc(-c2csc(N3CCCC3c3nc4cc(Cl)c(N5CCCCC5)cc4n3CCOCCO)n2)cc1Cl (centres undefined) | i | 0.83
NC(CS(=O)O)C(=O)O (centres undefined) | i | 1
C#CCSc1nnc(C)c(C)n1 | i | 0.95
C#Cc1ccc([C@H]2C=C(C(=O)OCC=C)O[C@@H](OCc3ccc(CO)cc3)C2)cc1 | i | 0.9
c1cc(-c2cc3cc(N4CCOCC4)ccc3o2)cs1 | i | 0.84
COC(=O)C1=C(C)NC(C)=C(C(=O)O[C@@H]2CCCN(Cc3ccccc3)C2)[C@@H]1c1cccc([N+](=O)[O-])c1 | i | 1
Cc1nn(C(=O)c2ccoc2C)c(N)c1-c1ccccc1 | i | 1
O=C(O)C[C@H]1c2cc(F)ccc2S(=O)(=O)N1C1CCCC1 | i | 0.89
O=C1NCCC12C(=O)Nc1ccccc12 (centres undefined) | i | 1.1
COc1ccc(CN2[C@@H](CC(=O)O)c3ccc(C(F)(F)F)cc3S2(=O)=O)cc1 | i | 0.97
C/C=C(\C)C(=O)NCCN1C2=NC[C@H](Cc3ccccc3)N2C[C@@H]1Cc1ccc(OC)cc1 | i | 0.86
O=c1[nH]c(=S)ccn1C1OC(CO)C(O)C1O (centres undefined) | i | 0.97
O=C(CSc1ccccn1)N1CCN(C(=O)CSc2ccccn2)CC1 | i | 0.84
O=C(c1cccc(Cl)c1)N1CCC(=O)N(C(CO)Cc2ccccc2)CC1 (centres undefined) | i | 1.1
CC(=O)O[C@H]1CC[C@@]2(C)C(=CC[C@H]3[C@@H]4CC[C@H](C(C)=O)[C@@]4(C)CC[C@@H]32)C1 | i | 0.87
c1cc(CN2CCCCC2)cc(OCCCNc2nc3ccccc3s2)c1 | i | 1
C=C(C)c1sc(-c2ccc(Cl)cc2)nc1C | i | 0.96
CCC/C=C1/CCCOC(C(=O)NCc2cc(C)n(C)n2)(C(F)(F)F)C1 (centres undefined) | i | 1
Cn1c(N)c(C(=O)COC(=O)c2cc(-c3ccccc3)nc3ccccc23)c(=O)n(C)c1=O | i | 0.79
COc1ccc(-c2ccncc2)cc1OC | i | 0.64
C=C[C@H]1[C@H](OC2OC(CO)C(O)C(O)C2O)OC=C(C(=O)OC)[C@H]1C[C@H]1CC(=O)C[C@H](CC(=O)CCc2ccc(O)cc2)O1 (some centres undefined) | i | 1.1
C/C=C/c1cc(OC)c2c(c1)[C@H](C)[C@@H](c1ccc(O)c(OC)c1)O2 | i | 0.89
CCOc1ccc2c(c1)OC1(CCC(C)C1)CC2=O (centres undefined) | i | 0.87
Cc1c2oc3c(C)ccc(C(=O)N[C@@H]4C(=O)N[C@H](C(C)C)C(=O)N5CCC[C@H]5C(=O)N(C)CC(=O)N(C)[C@@H](C(C)C)C(=O)O[C@@H]4C)c3nc-2c(C(=O)N[C@@H]2C(=O)N[C@H](C(C)C)C(=O)N3CCC[C@H]3C(=O)N(C)CC(=O)N(C)[C@@H](C(C)C)C(=O)O[C@@H]2C)c(N)c1=O | i | 0.42
Oc1cc2c(cc1O)C(c1ccccc1)CNCC2 (centres undefined) | i | 0.88
CC(C)C[C@H]1COCCS(=O)(=O)N1Cc1cccc(Cl)c1 | i | 0.91
C=CCOC(=O)C1=C[C@H](c2ccc(Br)cc2)C[C@H](OCCCCO)O1 | i | 0.91
O=c1c(O)c(-c2ccc(O)cc2)oc2cc(O)cc(O)c12 | i | 0.94
COc1ccc(/C=C/c2c(-c3cccc(C)c3)oc3ccc(N4CCOCC4)cc23)cc1 | i | 0.97
COc1ccc([C@H]2/C=C\CN(S(=O)(=O)c3ccc(C)cc3)[C@@H](C)C(=O)N2Cc2ccc(F)cc2)cc1 | i | 1
C=C1CCN(c2ccc(C(=O)NCc3ccc(OC)cc3)cc2[N+](=O)[O-])CC1 | i | 1.1
O=C(Nc1ccccc1N1CCN(c2ccccc2)CC1)C1CCCCC1 | i | 1
CCOC(=O)CN1C(=O)N[C@@H](c2cccc(C(F)(F)F)c2)[C@@H](C(=O)OC)[C@H]1C | i | 0.86
COc1ccc2nc(Nc3nc(CSc4nc5ccccc5s4)cc(=O)[nH]3)nc(C)c2c1 | i | 1.1
COC(=O)C1=C(C)N(CCCC(=O)O)C(=O)NC1c1ccccc1OS(=O)(=O)c1ccc([N+](=O)[O-])cc1 (centres undefined) | i | 0.65
COc1ccc(CNC(=O)c2ccc(N3CCC4(CC3)CC(c3ccc(Cl)cc3)=NO4)c(NC(=O)c3ccccc3)c2)cc1 | i | 0.88
CC1(C)[C@H](C(=O)O)N2C(=O)C[C@H]2S1(=O)=O | i | 1
C=CCN1c2ccccc2[C@]23C[C@@H](C(=O)OC)N(C(=O)NC4CCCC4)C2=NC(C(=O)OC)=C(C(=O)OC)[C@H]13 | i | 0.85
O=C(O)C1=CCNCC1 | i | 0.85
C=C1CCN([C@@H](Cc2ccccc2)C(=O)NCc2ccccc2)S(=O)(=O)c2ccccc21 | i | 0.93
CCOC(=O)N1C2=NC(C(=O)OC)=C(C(=O)OC)[C@@H]3N(C)c4ccc(OC)cc4[C@]23C[C@H]1C(=O)OC | i | 0.92
CCCNC(=O)C1CC(=O)N(c2ccc(OCC(=O)Nc3cc(C)cc(C)c3)cc2)C1 (centres undefined) | i | 1.1
O=C(O)CSC12CC3CC(C1)CC(C(=O)O)(C3)C2 | i | 0.91
CCN(CC)CCCN1C=C2C(=O)C(C)(OC(=O)CCC(=O)OC)C(=O)C=C2C=C1C1CC1 (centres undefined) | i | 0.82
C#CCNC(=O)C1=C[C@@H](c2ccc(C#C)cc2)C[C@@H](OCc2ccc(CO)cc2)O1 | i | 0.77
Cn1c(N)c(C(=O)CNC2CCCCC2)c(=O)n(C)c1=O | i | 0.98
C=CCOC(=O)C1=C[C@@H](c2ccc(C(F)(F)F)cc2)C[C@@H](OCc2ccc(CO)cc2)O1 | i | 0.8
O=C(O)C1=CCCNC1 | i | 0.86
O=c1c2ccccc2oc2cc(-c3ccc4[nH]ccc4c3)ccc12 | i | 0.53
CN1CCc2c(sc3c2C(=O)NC(c2ccc4c(c2)OCO4)N3)C1 (centres undefined) | i | 1.1
CN1CCN(c2nc3cc(C(F)(F)F)ccc3n3cccc23)CC1 | i | 0.74
CC1(c2nnc(Cc3ccccc3)o2)CC(c2ccc(C#N)cc2)=NO1 (centres undefined) | i | 1.1

# (listing goes on)
# Values in the order: HSV augment, HSV augment primary fold
> CC(=O)OC1CCC2C3CCC4=CC(=O)CCC4(C)C3CCC2(C)[C@]1(C)O (some centres undefined)
  i, 0.77
> O=C1[C@H]2[C@H](C=CC[C@H]2C(=O)N2CCN(c3ccccc3)CC2)CCN1Cc1ccccc1
  i, 0.77
> CCCCNC(=O)c1onc(CSc2ccc(Cl)cc2)c1C(=O)NCCCC
  i, 0.91
> CCOC(=O)c1cn(Cc2ccccc2)c(C(=O)OC(C)(C)C)c1O
  i, 0.92
> CCCN(CCc1ccccc1)C1CCc2c(O)cccc2C1 (centres undefined)
  i, 0.94
> CC1=C(/C=C/C(C)=C/C=C/C(C)=C\C(=O)O)C(C)(C)CCC1
  i, 0.87
> O=C1N[C@@H](Cc2ccccc2)C(=O)N2[C@@H]3N(S(=O)(=O)c4ccccc4)c4ccccc4[C@]3(Br)C[C@@H]12
  i, 0.73
> CN(C)c1ccc(O)c2c1CC1CC3C(N(C)C)C(=O)C(C(N)=O)=C(O)[C@@]3(O)C(=O)C1=C2O (some centres undefined)
  i, 0.85
> COC(=O)C1=C(C)N(CCCC(=O)O)C(=O)NC1c1ccc(Cl)cc1 (centres undefined)
  i, 0.99
> CCOC(=O)C1=C(C)NC(C)=C(C(=O)OCC)C1c1ccccc1/C=C/C(=O)OC(C)(C)C
  i, 0.69
> CC1CCC(NC(=O)c2ccc3c(c2)S(=O)(=O)c2ccccc2C3=O)CC1 (centres undefined)
  i, 0.8
> Cc1ccc(C2=NOC(C)(c3nnc(-c4ccccc4)o3)C2)cc1 (centres undefined)
  i, 0.9
> O=S(=O)(NCC1CCCO1)c1ccc(Cl)nc1 (centres undefined)
  i, 0.91
> NNC(=O)c1ccccc1CO
  i, 1.1
> Cc1ccc(CN(Cc2cc3cccc(C)c3[nH]c2=O)C(=O)N(C)C)cc1
  i, 0.82

# Retrieved one by one from above (three):
# Values in the order: HSV augment, HSV augment primary fold
> CC1=C(/C=C/C(C)=C/C=C/C(C)=C\C(=O)O)C(C)(C)CCC1
  i, 0.87
> CCCN(CCc1ccccc1)C1CCc2c(O)cccc2C1 (centres undefined)
  i, 0.94
> CCCCNC(=O)c1onc(CSc2ccc(Cl)cc2)c1C(=O)NCCCC
  i, 0.91

# Later entries.
# Values in the order: HSV augment, HSV augment primary fold
> O=C(O)C[C@H]1c2ccccc2S(=O)(=O)N1c1ccccc1
  i, 1.1
> CC(=O)Oc1ccc(-c2cc3c(OC(C)=O)cc(OC(C)=O)cc3oc2=O)cc1
  i, 1.2
> C#Cc1ccc([C@@H]2C=C(C(=O)N3CCOCC3)O[C@H](OCc3ccc(CO)cc3)C2)cc1
  i, 0.79
> Cn1c(=O)[nH]c2ncn(C)c2c1=O
  i, 0.88
> COC(=O)CCC(=O)OC1(C)C(=O)C=C2C=C(c3ccsc3)OC=C2C1=O (centres undefined)
  i, 1
> C=C1CCN([C@@H](CC(C)C)C(=O)NCc2ccco2)S(=O)(=O)c2ccccc21
  i, 1
> NC1=NC[C@@H](Cc2ccc(O)cc2)N1CCC12CC3CC(CC(C3)C1)C2
  i, 1
> CC(C)(C)NCC(O)c1ccc(O)c(CO)c1 (centres undefined)
  i, 0.7
> O=C(Nc1ccc2c(c1)OCO2)c1ccc2c(c1)S(=O)(=O)c1ccccc1C2=O
  i, 0.73
> O=C(O)C1=C[C@H](c2ccc(C(F)(F)F)cc2)C[C@H](OCCCCO)O1
  i, 0.9
> CSc1sc(C(=O)O)c2c1C(=O)CC(C)(C)C2
  i, 0.88
> CC1(OC(=O)C2CCCC2)C(=O)C=C2C=C(c3ccc(C#N)cc3)OC=C2C1=O (centres undefined)
  i, 1.1
> CCc1sc(C(=O)Nc2ccsc2C(=O)OC)cc1Br
  i, 1.1
> COC(=O)C1=C[C@@H](C(=O)OC)[C@@H]2C3=C(C(=O)[C@]2(CC(C)C)NC(=O)c2ccccc2)[C@H](C)n2c(=O)n(-c4ccccc4)c(=O)n2[C@@H]3C1
  i, 0.89
> Cc1ccc(-c2csc(NCCc3nc4cc(Cl)c(Cl)cc4n3CCOCCO)n2)cc1
  i, 0.88
> COC(C/C=C\[C@H](O)[C@@H](C)OCc1ccccc1)OC
  i, 0.8
> C/C(=C\[C@@H](NP(=O)(c1ccccc1)c1ccccc1)c1ccccc1)CO[Si](c1ccccc1)(c1ccccc1)C(C)(C)C
  i, 0.8
> CC(C)C(=O)c1c(C(C)C)nn2ccccc12
  i, 0.9
> COC(=O)C1=C(C(=O)OC)[C@@H]2Nc3ccccc3[C@@]23C[C@@H](C(=O)OC)N(C(=O)COCc2ccccc2)C3=N1
  i, 0.88
> C=C1CCN([C@@H](CC(C)C)C(=O)NCc2ccc(Cl)cc2)S(=O)(=O)c2ccccc21
  i, 0.93
> CC1(c2nnc(-c3cccc(Cl)c3)o2)CC(c2c(Cl)cccc2Cl)=NO1 (centres undefined)
  i, 0.92
> CCCNC(=O)C1(CC2CC(c3ccccc3)=NO2)CCN(C(=O)Cc2ccc(F)cc2)CC1 (centres undefined)
  i, 0.98
> CCOc1ccc(-c2nc3c(s2)CCc2onc(-c4ccc(OC)cc4)c2-3)cc1
  i, 0.79
> CS(=O)(=O)N1c2ccccc2[C@@]2(Br)C[C@H]3C(=O)N[C@@H](Cc4ccccc4)C(=O)N3[C@@H]12
  i, 0.83
> COCOc1cc(O)c2c(=O)c(OCOC)c(-c3ccc(OCOC)c(OCOC)c3)oc2c1
  i, 0.99
> CC(C)C(=O)NCCc1nc(-c2ccccc2)no1
  i, 1.1
> CC(C)C[C@H]1COCCS(=O)(=O)N1Cc1cccc(F)c1
  i, 0.88
> Cc1ccc(CN2C(=O)[C@H]3Cc4c([nH]c5ccccc45)C(C)(C)N3C2=O)cc1
  i, 1.1

# By substructure: the compounds so far containing two or more sulfur atoms (4)
# Values in the order: HSV augment, HSV augment primary fold
> O=C(CSc1ccccn1)N1CCN(C(=O)CSc2ccccn2)CC1
  i, 0.84
> COc1ccc2nc(Nc3nc(CSc4nc5ccccc5s4)cc(=O)[nH]3)nc(C)c2c1
  i, 1.1
> CSc1sc(C(=O)O)c2c1C(=O)CC(C)(C)C2
  i, 0.88
> CCc1sc(C(=O)Nc2ccsc2C(=O)OC)cc1Br
  i, 1.1

# Some of the compounds tested. The share of hits here may be higher or lower than overall.
